GLA inh pH 4.5: alpha-galactosidase A (human) inhibition, pH 4.5 | purified enzyme, 4-MU-alpha-Gal fluorescence, pH 4.5 | activity change, negative = inhibition, % at 105 µM | 230,000 tested, under 10 active; inconclusive = small, poorly fitted or top-dose-only inhibition, or a rising curve; inactive = flat fitted curve, though single readings scatter; no compound was filed as active;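 further: 0% = full activity with enzyme and -100% = basal without enzyme; dose as in the result columns while the protocol names 77 µM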
Target sequence (P06280 whole entry, looked up): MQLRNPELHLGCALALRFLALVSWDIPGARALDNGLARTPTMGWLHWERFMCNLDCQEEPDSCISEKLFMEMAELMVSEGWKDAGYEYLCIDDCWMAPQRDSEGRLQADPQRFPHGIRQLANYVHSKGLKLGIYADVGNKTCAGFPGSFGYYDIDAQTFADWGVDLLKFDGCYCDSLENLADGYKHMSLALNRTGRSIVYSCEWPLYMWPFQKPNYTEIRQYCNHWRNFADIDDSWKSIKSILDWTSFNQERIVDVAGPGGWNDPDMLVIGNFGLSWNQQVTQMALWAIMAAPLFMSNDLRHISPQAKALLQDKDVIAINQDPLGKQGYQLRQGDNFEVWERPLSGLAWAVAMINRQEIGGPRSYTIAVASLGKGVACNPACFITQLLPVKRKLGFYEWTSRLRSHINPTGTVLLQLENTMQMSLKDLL
Rango release inh: inhibition of RanGTP-driven Rango-importin beta dissociation; Biochemical FRET Rango-importin beta, RanGTP-induced dissociation; Potency, µM (highest dose often 46.1 µM), for the others: at the highest dose activity change, negative = inhibition; actives 0.071% (n = 340,000); active means falling FRET ratio curve, often poorly fitted, with flat reads before Ran was added; inconclusive means other falling curves, or compound fluorescence or quenching; inactive means flat or rising ratio curve;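 further: potency means the concentration at half of the fitted maximal effect; % of control where 0% means no effect; nearly all actives have a fitted effect of over 45% in size; -100% = wells without RanGTP and RCC1; the record marks most hits as doubtful in a second field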
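FRET read at 45 min, room temperature: inhibitors block the CFP/YFP signal rise when RanGTP (0.6 uM Ran, 2 mM GTP, 0.2 uM RCC1) frees Rango (0.1 uM) from importin beta (0.25 uM). Pre-read after 5 min compound exposure flags interference.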
Rango-impB inh: Rango-importin beta binding inhibition | Rango CFP/YFP FRET sensor + importin beta, 45 min | actives 0.031% (n = 340,000) | Potency, µM (titrated, usually from 92.2 µM), without a hit: at the top dose inhibition of complex formation; active = rising FRET ratio curve, often small or poorly fitted; inconclusive = mostly compound fluorescence or quenching in the first reads; inactive = flat curves in all reads;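 further: potency means the concentration at half of the fitted maximal effect; 0% = DMSO wells and 100% = buffer wells lacking importin beta; nearly all actives have a fitted effect of over 15% in size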
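Inhibition scored from the CFP 486 nm/YFP 530 nm FRET ratio 45 min after adding 0.125 microM importin beta to 50 nM Rango biosensor preincubated 5 min with compound (room temperature, PBS with DTT, Tween-20, BSA). No-importin wells as positive control.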
miR-21 FLuc: raises the signal of a miR-21 reporter; HeLa miR-21 FLuc reporter, luciferase, 48 h; Potency, µM (series often up to 38.3 µM), for the others: at the top dose reporter change, positive = more light; 340,000 tested, under 10 active; active = well fitted rising curve with a large enough effect; inconclusive = small, poorly fitted or top-dose-only effect; inactive = no such curve, though single readings can be large or run the other way;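 further: % of control where 0% means no effect; miR-21 action dims this reporter so a rising signal means less miR-21 action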
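Luminescence from a firefly luciferase reporter carrying a miR-21 binding site downstream, stably expressed under a CMV promoter in HeLa cells that make miR-21 endogenously, reports miRNA modulation after 48 h compound exposure up to approximately 40uM final.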
The depositor's hits bear a star; ? = inconclusive; · = no result given. Only part of the results is shown; count on the stated rates, not on these rows.

SMILES | GLA inh pH 4.5 | Rango release inh | Rango-impB inh | miR-21 FLuc
Cc1ccc(C)c(NC(=O)COC(=O)Cc2ccsc2)c1 | 6.2 | 3.2% | 1.3% | 2.7%
CN(C)CCNC(=O)/C(=C/c1ccc(-c2cccc(Cl)c2)o1)NC(=O)c1ccccc1 | -7.6 | ? | 5.2% | ?
Cc1ccc(Cc2c(C)nc3nc(SCC(=O)NCCCN4CCOCC4)nn3c2C)cc1 | -4.1 | -7.1% | -3.3% | -0.2%
O=C1CC(c2ccccc2)CC(O)=C1C=Nc1cccc(Cl)c1 (stereo not given) | 2.8 | 17.3% | -0.7% | 0.0%
O=[N+]([O-])c1ccc(Sc2ncccn2)c([N+](=O)[O-])c1 | 1.5 | 1.1% | -0.7% | ?
C/C(=N\NC(=O)c1ccccc1F)c1ccc(C#N)cc1 | 4.1 | -19.6% | -0.4% | -53.9%
Cn1c(=N)n(CC(=O)c2ccccc2)c2ccccc21 | 0.3 | -1.3% | 0.0% | 23.3%
Cc1nnc(SC(C)C(=O)Nc2nccs2)s1 (stereo not given) | 6.2 | -1.8% | -1.8% | 3.4%
Nc1n[nH]c(-c2ccccc2)c1-c1ccccc1 | -3.9 | -1.4% | 0.6% | 2.1%
CCN(CC)CCNC(=O)CCc1nn(C)c(=O)c2ccccc12 | 5.0 | -2.1% | 1.8% | -0.8%
CN(C)C(CNc1nnnn1-c1ccccc1)c1ccco1 (stereo not given) | 9.2 | -8.4% | -0.3% | -8.8%
CC(NC(=O)CSCc1ccc(Br)cc1)c1ccccc1 (stereo not given) | -3.5 | 17.1% | 1.4% | -4.0%
CCO[C@H]1OC(C(=O)NC2CC2)=C[C@@H](C2CC2)[C@@H]1CCCO | 3.1 | -0.4% | -0.2% | 0.3%
CCOC(=O)N/N=C(\C)c1ccc(Oc2ncccn2)cc1 | · | 3.2% | -1.5% | -0.8%
CCOC(=O)C(C(=O)OCC)N(C#N)c1nc(C)cc(C)n1 | 4.1 | -5.4% | -2.1% | -1.0%
COc1cccc(NC(=O)CN(C)C(=O)c2cc(CN3C(=O)c4ccccc4C3=O)ccc2OC)c1 | · | 46.1% | -3.4% | ·
CCN(CC)S(=O)(=O)c1ccc(Cl)c(C(=O)Oc2cccnc2)c1 | -2.6 | 3.7% | -1.9% | -7.4%
Cc1ccc(C)c(N(CC(=O)NC2CCCCC2)C(=O)CCC(=O)Nc2ccccn2)c1 | 0.3 | · | · | -0.1%
O=C1CC(N2CCN(c3ccc(F)cc3)CC2)C(=O)N1c1ccc2c(c1)OCO2 (stereo not given) | 1.1 | 0.0% | 1.1% | -0.7%
CCOc1ccc(/C=N/Nc2nncc(-c3ccccc3)n2)cc1OC | -0.6 | -6.3% | -1.2% | -1.5%
Cn1cnnc1SCC(=O)NCCc1ccc(Cl)cc1Cl | -6.6 | 10.1% | -0.8% | 1.5%
COc1cnc(-c2ccccc2)nc1Oc1cccc(C)c1C | -6.4 | 1.4% | 1.0% | 2.3%
CN1CCC(N(C)C(=O)/C(C#N)=C\c2ccc(OC(F)F)cc2)CC1 | · | -20.8% | -4.1% | ·
O=C(c1ccc(-c2cccc(C(F)(F)F)c2)o1)N1CCCCCCC1 | · | ? | -1.7% | ·
CCCc1nc2ccccc2c(C(=O)OCC(=O)NCc2ccc3c(c2)OCO3)c1CC | ? | -6.5% | -0.1% | 4.6%
Additional structures:
SMILES | GLA inh pH 4.5 | Rango release inh | Rango-impB inh | miR-21 FLuc
Cc1nnc(C)n1/N=C/c1cc(Br)ccc1O | 2.2 | ? | ? | -0.6%
CCn1c(SC)nc2c(c1=O)SC(C)C2 (stereo not given) | -0.6 | 4.5% | -1.2% | -17.1%
Cc1ccc(S(=O)(=O)N=Nc2c(O)[nH]c3ccccc23)cc1C | -3.0 | 2.8% | -0.8% | -0.9%
COc1cccc2cc(C(=O)N(C)C)c(=O)oc12 | -5.3 | 0.9% | -3.7% | -11.2%
CCN(CC)S(=O)(=O)c1ccc(C(=O)NCCSc2c[nH]c3ccccc23)cc1 | 6.2 | 18.0% | 1.6% | 2.1%
COc1ccc(S(=O)(=O)N2CCC(N3CCCC3)CC2)cc1 | · | 2.7% | 2.0% | -3.3%
O=C(Oc1ccccc1C(=S)N1CCOCC1)c1ccc([N+](=O)[O-])cc1[N+](=O)[O-] | · | -9.5% | 3.9% | 1.5%
Cc1ccc(CNC(=O)CCNC(=O)c2ccc([N+](=O)[O-])cc2)cc1 | · | 1.1% | -2.0% | ·
COc1ccc(O)c(CN2CCCC(N3CCc4ccccc4C3)C2)c1 (stereo not given) | · | 25.1% | 1.0% | 0.4%
Cc1ccc(-n2cc(-c3ccccc3)c3c(NN4CCOCC4)ncnc32)cc1 | -4.9 | -18.7% | -2.1% | -2.7%
CCOCCCNc1nc2ccccc2[nH]1 | -0.5 | 2.2% | 0.5% | -15.1%
C[C@H](CO)N1C[C@H](C)[C@@H](CN(C)S(=O)(=O)c2ccc(F)cc2)Oc2c(NS(=O)(=O)c3ccccc3)cccc2C1=O | · | -3.6% | 0.2% | ·
CC(C)(C)c1ccc(OCCCC(=O)Nc2ccc(S(N)(=O)=O)cc2)cc1 | -3.5 | -12.1% | 3.5% | 4.9%
O=C(COC(=O)c1cncc(Br)c1)NCc1ccc2c(c1)OCO2 | -5.4 | 15.2% | 2.5% | -3.1%
O=C(Nc1cc(=O)[nH]c2ncnn12)c1ccccc1Cl | -8.7 | -17.5% | ? | -16.9%
COc1ccc(NC(=O)Cn2c3ccc(OC)cc3c3nc4n(c(=O)c32)CCS4)cc1 | · | 7.2% | -5.3% | -5.4%
CCCCCCCNC(=O)C1(CC2CC(c3ccc(Cl)cc3)=NO2)CCN(C(=O)OC(C)(C)C)CC1 (stereo not given) | · | 5.3% | -0.9% | 0.4%
Cc1ccc(CSc2ncnc3onc(C)c23)cc1 | -19.8 | -15.8% | 1.2% | -1.8%
O=C(NC(=S)NNC(=O)c1ccccc1[N+](=O)[O-])c1ccccc1 | -16.1 | -0.9% | -2.6% | -9.9%
CCOc1cc(C2CC(=O)Nc3cc(C)c(C)cc32)ccc1O (stereo not given) | -0.7 | 11.6% | 6.9% | -10.4%
Cc1ccccc1NC(=O)c1cc(S(=O)(=O)N2CCCCC2)cs1 | -2.2 | -0.7% | 2.6% | 1.4%
CC(Oc1ccccc1)C(=O)N1CCN(C(=O)C(C)Oc2ccccc2)CC1 (stereo not given) | · | -8.1% | -2.5% | 1.3%
Cn1nc(C(F)(F)F)c(-c2cccc(C(F)(F)F)c2)c1NC(=O)c1cccnc1 | 1.5 | -3.3% | ? | 3.2%
O=C(NC1CCN(Cc2ccccc2)CC1)c1ccc(S(=O)(=O)NCc2ccco2)cc1 | 0.0 | 0.8% | -0.7% | 19.9%
O=C(Nc1cccc(C(=O)O)c1)/C(=C\c1ccc2c(c1)OCO2)NC(=O)c1ccccc1Cl | · | 7.8% | -1.8% | 7.2%
(further entries)
SMILES | GLA inh pH 4.5 | Rango release inh | Rango-impB inh | miR-21 FLuc
COc1ccc2nc(NC(=O)Cc3ccc(OC)c(S(=O)(=O)N4CCOCC4)c3)sc2c1 | 4.8 | -10.3% | -0.3% | -3.4%
Clc1ccc(Oc2ccccc2)c2ncccc12 | · | 28.9% | 1.7% | -22.0%
CCN(CC)c1ccc(C(=O)OCC(=O)Nc2sccc2C#N)cc1 | -2.6 | 16.1% | -1.3% | -57.3%
O=C(c1cc(NC(=O)C23CC4CC(CC(C4)C2)C3)cc(NC(=O)C23CC4CC(CC(C4)C2)C3)c1)N1CCCCC1 | 1.1 | 1.0% | -0.7% | -2.2%
CC(C)Cc1cc(C(=O)N(C)C2CCCN(Cc3ccccc3F)C2)n(C)n1 (stereo not given) | · | 1.9% | 0.6% | 5.2%
CC(=O)c1cccc(S(=O)(=O)NCCC(=O)Nc2ccc(S(N)(=O)=O)cc2)c1 | · | -6.4% | -0.6% | 1.7%
CCOC(=O)N1CCN(CC(O)COc2c(OC)cccc2OC)CC1 (stereo not given) | -2.3 | 11.7% | 3.3% | 1.7%
COc1ccc(C)cc1S(=O)(=O)NC1CCCCC1C (stereo not given) | 0.7 | -6.5% | -1.4% | -8.5%
O=C(COC(=O)c1cc(Cl)ccc1O)Nc1ccc2c(c1)OCCO2 | · | -0.5% | -1.5% | ·
Cc1ccc(NC(=O)COC(=O)C2(C)CC2(Cl)Cl)cc1S(=O)(=O)N1CCOCC1 (stereo not given) | · | -25.2% | -1.1% | ·
Cc1cccc(CNC(=O)CC2C(=O)NCCN2C2CCCC2)c1 (stereo not given) | · | -6.6% | -5.9% | -9.6%
CCC(C)C(NC(N)=O)C(=O)Nc1ccc(S(=O)(=O)Nc2ccc(OC)cc2)cc1 (stereo not given) | 1.0 | -18.6% | -0.2% | -0.2%
CCCC(C)NS(=O)(=O)c1ccc(OC)c(C)c1 (stereo not given) | 7.3 | 2.0% | 0.8% | -3.6%
CCOC(=O)C(Sc1ncnc2c1sc1nc(N3CCOCC3)c3c(c12)CCCC3)c1ccccc1 (stereo not given) | -18.6 | · | · | -3.9%
O=C(O)/C=C/c1cnc2ccccc2n1 | 2.7 | -14.4% | 2.1% | -0.1%
O=C(NCC(=O)N(c1ccc(F)cc1)C(C(=O)NC1CCCC1)c1ccncc1)c1ccco1 (stereo not given) | · | 17.1% | -4.3% | -4.2%
COc1ccc(NC(=O)CSc2nnc(C)n2N)cc1S(=O)(=O)N1CCCCC1 | · | -0.8% | 2.9% | ·
CC(C)n1cc(CN2CCN(CCc3ccccc3)C(CCO)C2)cn1 (stereo not given) | 2.4 | 2.3% | -4.7% | -0.5%
COc1ccc(NC(=O)C2Cc3ccccc3O/C2=N\O)cc1 (stereo not given) | · | 8.1% | 1.8% | -59.6%
CCOc1ccc(S(=O)(=O)Nc2ccc(C(=O)NCC(C)(C)N3CCOCC3)cc2)cc1 | · | -8.6% | 3.5% | ·
Cc1cc2c(cc1C)NC(CC(=O)NCc1ccccc1)C(=O)N2 (stereo not given) | 12.5 | ? | ? | -48.9%
COc1ccc(N2CCN(CNC(=O)c3ccccc3)CC2)cc1 | · | 3.2% | 0.5% | -0.4%
CCCCc1ccc(NC(=O)CSc2nc(=O)n(CCN3CCOCC3)c3c2CCC3)cc1 | · | -1.4% | -1.3% | ·
Cc1ccc(C2=[N+]([O-])C(C)(C)N(O)C2(C)C)cc1 | 4.8 | 1.4% | -0.9% | -0.3%
O=C(N/N=C\c1c(O)ccc2ccccc12)c1ccc(Cn2cccn2)o1 | -1.8 | ? | ? | 2.9%

Full records, looked up by structure. Order of screens: GLA inh pH 4.5 | Rango release inh | Rango-impB inh | miR-21 FLuc
COc1ccc(NC(=O)Cn2c3ccc(OC)cc3c3nc4n(c(=O)c32)CCS4)cc1 in the list: · | 7.2% | -5.3% | -5.4%
O=[N+]([O-])c1ccc(Sc2ncccn2)c([N+](=O)[O-])c1 in the list: 1.5 | 1.1% | -0.7% | ?
COc1ccc(O)c(CN2CCCC(N3CCc4ccccc4C3)C2)c1 (stereo not given) in the list: · | 25.1% | 1.0% | 0.4%

(next part)
SMILES | GLA inh pH 4.5 | Rango release inh | Rango-impB inh | miR-21 FLuc
CC1=Nc2ccc(C)cc2/C1=C/c1c(N)n2nc(CC(=O)N3CCOCC3)sc2nc1=O | · | -15.7% | 1.6% | -1.5%
Cc1ccc(NS(=O)(=O)c2ccc3c(c2)oc(=O)n3C)cc1 | · | 2.5% | 3.9% | 8.2%
CCC(C)(C)NC(=O)C(OC(=O)c1ccco1)c1ccccc1OC (stereo not given) | -4.9 | 7.7% | 7.6% | -2.1%
CCOC(=O)c1ccc(N2C(=O)CC(N3CCN(C(=O)c4ccccc4)CC3)C2=O)cc1 (stereo not given) | 6.1 | -13.1% | ? | -0.3%
Cc1ccc(NC(=O)CCN2C(=O)CSC2=O)cc1 | -3.6 | 2.3% | -2.6% | 0.3%
O=C(O)COc1cccc(NC(=O)c2ccccc2)c1 | 4.6 | -6.4% | -0.8% | -3.4%
COc1ccc(CCNC2=CC(=O)N(c3ccc(F)cc3)C2=O)cc1 | -1.0 | ? | ? | 0.2%
Cc1ccccc1OCCn1cc(C(=O)O)c2ccccc21 | -0.8 | 11.1% | 7.6% | -23.1%
O=C(O)c1cccc(S(=O)(=O)Nc2ccc(O)c(Sc3nc4ccccc4s3)c2)c1 | 15.3 | -13.0% | 0.4% | 3.2%

High-throughput results deposited in PubChem by National Center for Advancing Translational Sciences (NCATS).
